NPYLR7 ag: activates Aedes aegypti NPYLR7 receptor. HEK293T NPYLR7/Galpha15, GCaMP6s calcium fluorescence. activation, % at 10 µM. 270,000 compounds, 0.15% hits. AID 1259423; in the data active = activation above about 40%;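 also: 0% = vehicle and 100% = reference agonist at the receptor; some compounds past the cut are filed as inactive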
NPYLR7 ag max-min: further read-out of NPYLR7 ag, marked with its call; activation, %; measured here: Max-Min RFU normalised activation; some inactives read as strong as hits;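 span of the calcium signal over five minutes; 0% = vehicle and 100% = native peptide agonist; compound fluorescence can raise it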
The depositor's hits bear a star; & = joins results of further samples.

Value order: NPYLR7 ag	NPYLR7 ag max-min
Cc1cc(C)c2c(c1)OC(O)(C(F)F)CC2=O (stereo not given)
    -2	2
COc1cc2c(cc1OC)C(c1cccc(C(F)(F)F)c1)N(C(=O)C1CCC1)CC2 (stereo not given)
    17	9
O=C(Nc1ccc(SCCN2CCOCC2)nn1)c1ccccc1F
    -1	-7
C/C=C/COC(=O)C1=C(C)NC(=O)NC1c1ccc(OCC)c(OC)c1 (stereo not given)
    -2	-4
Cc1ccccc1CC(=O)NC1CCN(C(=O)C2CCCCC2)CC1
    9	7
Cc1ccc(C2(O)CCN(C(=O)c3ccc(-n4cnnc4)cc3)CC2)nc1
    0	1
Cc1cc(C)nc(CCNC(=O)Cn2nnnc2CN2CCCCCC2)n1
    21	16
O=C1NCCc2c(OCC(=O)N3CCCCC3)cccc21
    17	12
N#CC(C=Nc1ccc(C(N)=O)cc1)c1nc(-c2cccs2)cs1 (stereo not given)
    -1	-2
Cc1c(Cl)cccc1-n1c(C(C)N(CC(C)C)C(=O)c2cccc(Br)c2)nc2ccccc2c1=O (stereo not given)
    0	-7
Cc1ccc(C)c(C2CCN(C(=O)c3ccc4c(=O)n(-c5ccccc5)c(=O)[nH]c4c3)CC2)c1
    -8	-11
COCCN(CC(=O)N1CCc2sccc2C1c1ccc(Cl)cc1Cl)C(=O)c1ccccc1F (stereo not given)
    -6	-6
COC(=O)c1[nH]nc2c1C(c1ccc3c(c1)CC(C)(C)O3)CC(=O)N2 (stereo not given)
    3	0
CCOC(=O)C1(CCc2ccccc2)CCN(C(=O)c2ccc(COC)o2)CC1
    -9	-13
CCN(CCn1cccn1)C(=O)CC1C(=O)NCCN1Cc1cc(OC)cc(OC)c1 (stereo not given)
    7	4
CC1CCCC(NC(=O)CSc2nnc(-c3ccco3)n2C)C1C (stereo not given)
    1	-1
Cn1c(SCC(=O)NC(=O)NC2CCCCC2)nnc1-c1ccco1
    -4	-6
Cc1ccc(-c2cc(C(=O)NC(Cc3ccccc3)c3ccccc3)n(-c3cccc([N+](=O)[O-])c3)n2)o1 (stereo not given)
    10	7
CCCCNC(=O)Nc1cccc(CS(=O)Cc2ccccc2)c1 (stereo not given)
    16	12
CCc1nc(C2CC(=O)Nc3c2cnn3Cc2ccccc2Cl)c(C)[nH]1 (stereo not given)
    25	15
O=C(CCN1CCN(CCc2ccncc2)CC1)NC1CCCCCC1
    -18	-18
CCCN1CCN(C(=O)C(CC(C)C)NC(=O)c2ccc(Cl)cc2)CC1 (stereo not given)
    0	-3
O=C(NCCn1nc(-c2ccccc2)ccc1=O)C1CCCC1
    -1	0
COc1cccc(-n2ccnc2SCc2nc3ccccc3c(=O)n2CC(N)=O)c1
    6	3
COCCNC(=O)Cn1nc(C(C)C)c2cnn(-c3ccccc3C)c2c1=O
    2	3
CCc1cccc2sc(N(Cc3ccccn3)C(=O)c3cccc(N4C(=O)CCC4=O)c3)nc12
    -4	-4
N#CC1C(=N)Oc2n[nH]c(-c3ccc4c(c3)OCO4)c2C1c1ccc(F)cc1 (stereo not given)
    10	5
COc1ccc(-c2csc(NC(=O)C34CC5CC(CC(Cl)(C5)C3)C4)n2)cc1OC
    6	3
O=C(c1cccnc1-c1ccoc1)N1C[C@H]2CC[C@@H]1C2
    1	2
COc1ccc2nc(N(CCN(C)C)C(=O)C3CCCCC3)sc2c1
    -3	-8

Random excerpt: four compounds from above
Value order: NPYLR7 ag	NPYLR7 ag max-min
Cc1cc(C)nc(CCNC(=O)Cn2nnnc2CN2CCCCCC2)n1
    21	16
COc1cccc(-n2ccnc2SCc2nc3ccccc3c(=O)n2CC(N)=O)c1
    6	3
CCc1cccc2sc(N(Cc3ccccn3)C(=O)c3cccc(N4C(=O)CCC4=O)c3)nc12
    -4	-4
CCCN1CCN(C(=O)C(CC(C)C)NC(=O)c2ccc(Cl)cc2)CC1 (stereo not given)
    0	-3

Later entries
Value order: NPYLR7 ag	NPYLR7 ag max-min
c1csc(Nc2nc3cc4c(cc3s2)OCO4)n1
    5	2
COc1ccc(OC)c(N)c1
    5	2
Cc1c(C(=O)N(C)CC(=O)Nc2cccc(F)c2)sc2ncn(C)c(=O)c12
    -6	-10
O=C1NC(=S)SC1=Cc1ccccc1Cl
    6	1
COC(=O)c1cc2n(n1)CCCN(Cc1coc3ccccc3c1=O)C2
    -5	-8
O=C(NCCc1ccccc1)C1CCC(C(=O)NCCc2ccccc2)CC1 (stereo not given)
    16	15
COc1ccc(C2=NC(=Cc3ccc4c(c3)OCCO4)C(=O)O2)cc1OC
    4	0
CS(=O)(=O)N1CCCC(NCc2ccc(-c3ccc(C(F)(F)F)cc3)o2)C1 (stereo not given)
    -1	-2
COc1cc2c(cc1OC)C(c1cccc(Cl)c1)N(C(=O)C=C(C)C)CC2 (stereo not given)
    6	2
CN(Cc1ccccc1Cl)C(=O)C1CCCN1C(=O)OC(C)(C)C (stereo not given)
    12	9
COc1ccc(-n2nnnc2SCc2ccc(C(=O)N3C4CCC3CC(Oc3cc(C)ccc3Cl)C4)cc2)cc1 (stereo not given)
    9	5
CCc1nnsc1C(=O)N1CCCN(c2ccncc2C)CC1
    0	11
CC(SCc1cccc(F)c1F)C(=O)NC(C)(C)C (stereo not given)
    -1&2	-1&8
COCCC1CCCCN1Cc1cccc(C(C)=O)c1 (stereo not given)
    -7	-10
CCCCN(C(=O)c1ccc(S(=O)(=O)N(CC)CC)cc1)C1CCS(=O)(=O)C1 (stereo not given)
    -15	-13
N#Cc1cccc(NC(=O)Nc2ccc(N3CCCCC3)c(C(=O)N3CCCC3)c2)c1
    29	25
O=C(O)c1ccccc1S(=O)(=O)Cc1ccccc1
    0	2
O=S1(=O)C=CC(=C(Cl)Cl)C1
    8	3
COc1ccc(-n2nnc(C(=O)OCc3ccc(F)cc3)c2C)cc1Cl
    7	-3
N#Cc1ccccc1COC1C[C@](OCc2ccc(F)cc2)(C(=O)NCC2CCCO2)C[C@@H](O)[C@H]1O (stereo not given in full)
    6	11
Cc1cnc(CN(C)C(=O)c2ccc(OCC(=O)N3CCCCC3)cc2)[nH]1
    1	1
CCOC(=O)c1nn(-c2ccc(F)cc2)c(=O)cc1N1CCc2ccccc21
    7	1
Cc1ncoc1C(=O)N1CCC2(CCCN(Cc3cccc(F)c3F)C2)C1 (stereo not given)
    2	2
Cc1oc(-c2cccc(Cl)c2)nc1CN1N=NC2C(=O)N(c3ccc(F)cc3)C(=O)C21 (stereo not given)
    -7	-10
O=C(Nc1ccccc1-n1ccnn1)C1CCCN1 (stereo not given)
    -3	236
O=C(C1CCCC1)N1CCC(NCc2cccc3c2OCCCO3)C1 (stereo not given)
    7	5
O=C(CNC(=O)c1ccncc1)N=Nc1c(O)n(Cc2ccccc2)c2ccccc12
    -2	-7
CCOC(=O)c1c(NC(=O)C=Cc2ccco2)sc(Cc2ccc3c(c2)OCO3)c1C
    0	-2
CC(C(=O)Nc1ccc(=O)n(C)c1)S(=O)(=O)c1ccc(F)cc1 (stereo not given)
    2	-3
COc1ccc(Cl)cc1NC(=O)CCC1CCCN(C(=O)CSC)C1 (stereo not given)
    5	-1
CCOC(=O)c1sc(=NC(=O)c2ccc(S(=O)(=O)N(CC)CC)cc2)n(C)c1C
    1	3
Cc1cc(C)c(OCC(=O)N2N=C3CCCCC3C2(O)C(F)(F)F)c(C)c1 (stereo not given)
    5	3
C=CCNC(=O)C(NC(=O)c1ccccc1)C1CCN(C(=O)c2ccccc2F)CC1 (stereo not given)
    -3	4
CC(=O)C1=C(c2ccc([N+](=O)[O-])cc2)N(C(C)=O)n2c(nnc2C2CCCCC2)S1
    3	0
COc1ccc(OC)c(-c2cnc(-c3cccc(CNC(=O)C(Cl)Cl)c3)[nH]2)c1
    1	1
Cc1noc(-c2ccccc2NS(=O)(=O)c2ccc(C)c(C(=O)O)c2)n1
    10	4
O=C(CN1CCC(c2ccccc2)CC1)NC1CCCN(c2ncccn2)C1 (stereo not given)
    17	3
Nc1ccnc(N2CC(c3ccccn3)C2)n1
    3	-3
Cc1ccc(CN(C)C(=O)c2cc(-c3cnn(C)c3C)n[nH]2)o1
    5	5
Cc1nn(C)c(C)c1/C=C/C(=O)Nc1cc(F)ccc1F
    3	2
CCC(=O)N(c1nnc(SCc2cc(-c3ccco3)on2)s1)C1CC1
    5	5
NS(=O)(=O)c1ccc(N=Nc2c(-c3ccccc3)[nH]n(-c3ccccc3)c2=O)cc1
    -5	-11
O=S1(=O)CCN2C(=N1)Sc1ccc3ccccc3c12
    14	14
Cc1nn(C)c(C)c1NC(=O)CN1CC(C(N)=O)CCC1C (stereo not given)
    -4	-6
O=c1c2ccccc2ncn1CN1CCN(Cc2ccc3c(c2)OCO3)CC1
    -2	-3
COC(=O)c1ccccc1SC1CC(=O)N(c2ccc(N(C)C)cc2)C1=O (stereo not given)
    6	2
COc1ccc(Cc2nc3ccc(C(=O)NCC4CC(=O)N(C5CC5)C4)cc3o2)cc1 (stereo not given)
    7	3
O=C(CCc1ccccc1)Nc1c(-c2cccc(F)c2)nc2ccccn12
    -7	-1
CCCCc1ccc(-c2ccc(-n3cncc3C(=O)NCc3cnc(C)cn3)cc2)cc1
    3	-2
Cc1ccccc1Nc1nc(C)c([N+](=O)[O-])c(Nc2ccccc2C)n1
    4	5
Cc1oc(S(=O)(=O)N(C)C)cc1C(=O)O
    12	8
Cc1nc(C(C)C)ncc1C(=O)N1CCNCC1C(=O)NC1CC1 (stereo not given)
    16	10
Oc1ccc(C=NN2CCOCC2)cc1
    9	10
Cc1ccc(-c2nc3nc(N)n(C)c(=O)c3[nH]c2=O)cc1
    136*	117*
COc1cc(C)ccc1S(=O)(=O)Nc1ccccc1C(=O)NCc1ccc2c(c1)OCO2
    2	5
CN1CCN(C(C)(C)CNC(=O)NCCC(c2ccccc2)c2ccccc2)CC1
    4	-2
CCNC(=O)O[C@H]1C(=O)N(C)C2(CCN(C(=O)Cc3cccs3)CC2)[C@@H]1C(=O)OCC
    22	21
CC(Nc1ccn(Cc2ccccn2)n1)c1ncc(C(C)(C)C)o1 (stereo not given)
    3	3
CC(Sc1nncn1C1CC1)C(=O)NCc1ccc(Cl)cc1 (stereo not given)
    1	-2
Cc1ccc(-n2c(SCc3ccc(F)cc3)nnc2C(Cc2ccccc2)NC(=O)NCc2ccccc2)cc1 (stereo not given)
    -1	1

6 successive records already listed, for reference:
Value order: NPYLR7 ag	NPYLR7 ag max-min
CCOC(=O)c1sc(=NC(=O)c2ccc(S(=O)(=O)N(CC)CC)cc2)n(C)c1C
    1	3
Cc1cc(C)c(OCC(=O)N2N=C3CCCCC3C2(O)C(F)(F)F)c(C)c1 (stereo not given)
    5	3
C=CCNC(=O)C(NC(=O)c1ccccc1)C1CCN(C(=O)c2ccccc2F)CC1 (stereo not given)
    -3	4
CC(=O)C1=C(c2ccc([N+](=O)[O-])cc2)N(C(C)=O)n2c(nnc2C2CCCCC2)S1
    3	0
COc1ccc(OC)c(-c2cnc(-c3cccc(CNC(=O)C(Cl)Cl)c3)[nH]2)c1
    1	1
Cc1noc(-c2ccccc2NS(=O)(=O)c2ccc(C)c(C(=O)O)c2)n1
    10	4

Further entries
Value order: NPYLR7 ag	NPYLR7 ag max-min
COc1ccc2[nH]c(=O)c(CN(C)Cc3cn(C)nc3C)cc2c1
    22	19
Cc1nc(Nc2ncc(C(=O)Nc3c(C)cccc3Cl)s2)cc(N2CCN(CCO)CC2)n1
    -3	-1
CC(NC(=O)c1cc(S(C)(=O)=O)ccc1Cl)c1cccs1 (stereo not given)
    11&1	5&1
COc1ccc2c(=O)cc(C(F)(F)F)oc2c1
    10	3
COc1cccc(S(=O)(=O)NC(=O)COc2c(C)cccc2C)c1
    6	3
CCC(C)C(NS(=O)(=O)c1cc2ccccc2o1)C(N)=O (stereo not given)
    -6	-13
Nc1nn(S(=O)(=O)c2ccc(F)cc2)cc1-c1cccc(F)c1
    -3	-4
c1ccc(Nc2ccc(-c3ccc4ccccc4c3)cn2)cc1
    3	2
C/C(=C/C(=O)N1CCC(C(=O)N(C)C(C)C)CC1)c1ccc(F)cc1
    9	9
O=C(O)c1cccnc1S(=O)(=O)C(F)(F)F
    10	10
O=C(NC1CCN(c2ccccc2C(=O)NCc2cccc(C(F)(F)F)c2)CC1)c1ccc(Cl)cc1
    31	41
CC(Oc1cccc(Cl)c1)c1nc(-c2cccnc2)n[nH]1 (stereo not given)
    18	10
Cc1ccccc1Cn1cccc1CN(CCC(C)C)CC(O)CN1CCOCC1 (stereo not given)
    20	27
Cc1ccc(CN(CCc2ccccc2)C(=O)CN(C(=O)Nc2ccccc2)C(C)C)o1
    -3	-10
Cc1ccc(S(=O)(=O)N(Cc2ccco2)Cc2nccn2Cc2c(C)cc(C)cc2C)cc1
    -11	4
CCOC(=O)N1CCC(N2CCN(c3nc4cc(C)ccc4o3)CC2)CC1
    23	16
CS(=O)(=O)c1ccc(-c2csc(-c3ccc(F)cc3)n2)cc1
    -5	-6
CCCCOCCOCC(=O)N1CCC(n2c(C)nc3ccc(C)cc32)CC1
    4	0
CCOc1ccc(NC(=O)CSc2nc(=O)n(CCCN3CCOCC3)c3c2CCCC3)cc1
    -3	-1

The list is partial; rates above refer to the full screens.
